# Screening results deposited in PubChem BioAssay by National Center for Advancing Translational Sciences (NCATS).
# Resorufin fluor: compounds fluorescent in resorufin spectral region. Compound fluorescence, resorufin region 547/598 nm, buffer; active compounds read high. max dye-equivalent concentration, M. actives 0.04% (n = 59,000). AID 588; active = above 10 nM dye equivalent; inconclusive = 1 to 10 nM; inactive = 1 nM or less; a few of its hits are not listed in these tables; also: highest value over a series up to 38 µM
#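 Compounds in 100 mM Tris buffer, pH 8.0, incubated 15 min at room temperature, then read with 547 nm excitation and 598 nm emission filters. Fluorescence was converted to dye-equivalent concentration using an on-plate six-point resorufin standard curve.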
# TSHR agonist: activates the human thyroid stimulating hormone receptor; Potency, µM (doses to about 57.1 µM), for inactives: top-dose activation, usual class: activators; HEK293-CNG-TSHR cells (CNG channel as cAMP sensor), membrane potential dye, cAMP; actives 0.48% (n = 73,000); AID 926; active = well fitted activation curve of enough size with the parental cells flat; inconclusive = any curve in the parental cells; inactive = parental cells flat and receptor cells flat or falling; also: potency is read from the fitted curve at half-maximal effect; % of control where 0% means no effect; weak receptor curves with flat parental cells got no call and are not listed
# Target sequence (P16473 whole entry, looked up): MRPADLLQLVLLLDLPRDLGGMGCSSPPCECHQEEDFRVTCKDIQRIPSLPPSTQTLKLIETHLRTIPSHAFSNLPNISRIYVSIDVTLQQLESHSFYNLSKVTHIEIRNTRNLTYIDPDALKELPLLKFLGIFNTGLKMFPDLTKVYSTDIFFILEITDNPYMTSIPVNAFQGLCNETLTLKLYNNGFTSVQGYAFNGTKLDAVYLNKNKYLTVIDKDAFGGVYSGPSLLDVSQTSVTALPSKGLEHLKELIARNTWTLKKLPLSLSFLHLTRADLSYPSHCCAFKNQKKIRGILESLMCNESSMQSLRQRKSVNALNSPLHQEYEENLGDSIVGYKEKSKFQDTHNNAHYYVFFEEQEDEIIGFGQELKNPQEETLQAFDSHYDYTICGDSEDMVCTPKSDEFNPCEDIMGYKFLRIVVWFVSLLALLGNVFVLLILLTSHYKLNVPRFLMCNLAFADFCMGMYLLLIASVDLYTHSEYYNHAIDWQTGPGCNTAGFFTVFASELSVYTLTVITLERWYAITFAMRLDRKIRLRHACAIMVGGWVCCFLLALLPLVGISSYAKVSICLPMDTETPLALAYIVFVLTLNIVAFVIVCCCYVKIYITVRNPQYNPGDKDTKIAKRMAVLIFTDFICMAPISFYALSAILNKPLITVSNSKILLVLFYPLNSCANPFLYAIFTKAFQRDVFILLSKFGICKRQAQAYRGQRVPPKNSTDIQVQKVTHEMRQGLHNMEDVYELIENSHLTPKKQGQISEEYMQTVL
#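 HEK 293 cells stably expressing TSHR and a cAMP-gated CNG channel; parental CNG-only cells as counterscreen. Cells preloaded 60 min with membrane potential dye plus 100 uM RO 20-1724, then compound 30 min; fluorescence read at 590 nm.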
# A647 autofl: compound fluoresces in the A647 spectral region; Compound fluorescence, A647 channel (570/671 nm), Tris buffer; max dye-equivalent concentration, M; 59,000 tested, under 10 active; AID 592; active means above 1 µM dye equivalent; inconclusive means 0.1 to 1 µM; inactive means 0.1 µM or less;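 also: values scaled relative to a standard on each plate; highest value over a series up to 38 µM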
#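 Spectral profiling of library compounds in pH 8.0 Tris: 15 min room-temperature incubation, single ex/em pair (570/671 nm), response normalized to Alexa 647 equivalents.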
# A488 autofl: A488 region autofluorescence; compound autofluorescence, A488 spectral region, dye equivalency; active compounds read high; max dye equivalency, M; actives 0.1% (n = 59,000); AID 591; active = above 10 nM dye equivalent; inconclusive = 1 to 10 nM; inactive = 1 nM or less; about half of its hits are not listed in these tables;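 also: highest value over a series up to 38 µM; compound alone in buffer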
#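 Compounds pin-transferred into 100 mM Tris buffer, pH 8.0, incubated 15 min at room temperature, then imaged with 480 nm excitation/540 nm emission filters. Fluorescence converted to Alexa 488 dye-equivalent concentration via an on-plate six-point A488 standard curve.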
# AID923: qHTS Assay for Allosteric/Competitive Inhibitors of Caspase-1: Spectroscopic Profiling in AFC Spectral Region. compound fluorescence, AFC spectral region (405/520 nm); almost no hit is shown here. Potency, µM (series often up to 57.5 µM), for the others: at the top dose fluorescence increase, most hits filed as activators. actives 1.1% (n = 75,000); active = well fitted activation curve with a large enough effect; inconclusive = small, poorly fitted or top-dose-only effect;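 also: potency is read from the fitted curve at half-maximal effect; 0% is about no effect; scaled to a free AFC standard on each plate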
#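 Titrations up to 57 uM read every 20 sec for 3 min (405/520 nm) with 50 nM caspase 1 and 5 uM Ac-WEHD-AFC, pH 7.5 HEPES buffer. Fluorescence-vs-time intercept gave baseline, scaled against on-plate AFC standard.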
# Active calls of the source: *; i = inactive; ? = inconclusive; · = no result given; [ ] = dose if it differs, or a comment.
SMILES,Resorufin fluor,TSHR agonist,A647 autofl,A488 autofl,AID923
CCc1ccccc1-n1cnc2cc(C(=O)O)ccc21,i,-2%[11.4 µM],2.8e-08,i,0.0%
O=C(Nc1ncc2c(n1)CC(c1ccccc1)CC2=O)c1ccco1 (centres undefined),i,3%,1e-09,i,-0.9%
Brc1ccccc1-c1ccccc1,·,4%,·,·,-1.7%
N#CC1=C(N)Oc2cc(O)ccc2C1c1cccs1 (centres undefined),i,4%,7.2e-09,i,7.3%
C=Cc1cccc(C)c1,·,-2%,·,·,0.9%
COc1cccc(Cn2c(=O)c(-c3cc(F)cc(F)c3)nc3cnc(OC)nc32)c1,i,0%,7.7e-09,i,18%
COc1ccc(-c2c(C)oc3c(CN4CCN(CCO)CC4)c(O)ccc3c2=O)cc1OC,i,1%,1e-09,i,1.4%
O=C(COC(=O)c1cccs1)Nc1ccccc1,i,-8%,1e-09,i,0.3%
CCCCCc1c(C)nc(Nc2nc(C)c3cc(OC)ccc3n2)[nH]c1=O,i,?,1e-09,i,-2.0%
Cc1noc(C)c1-c1nc(Nc2ccc(F)cc2)c2ccccc2n1,i,4%,1.1e-08,i,2.0%
CCCn1c(SCC(=O)Nc2sc(C)c(C)c2C(=O)OCC)nc2c1c(=O)n(C)c(=O)n2C,i,19%,4.1e-09,i,1.7%
N[C@@H](Cn1cc(I)c(=O)n(Cc2ccc(C(=O)O)cc2)c1=O)C(=O)O,·,?,·,·,-0.3%
O=C(NCCc1csc(-c2cccnc2)n1)c1ccco1,·,-6%,·,·,3.2%
CCSc1oc(-c2ccccc2)nc1S(=O)(=O)c1ccccc1,i,?,1.2e-09,i,3.7%
CCn1cc(C2=NCC(C)O2)c2ccccc21 (centres undefined),i,10%,1.2e-09,i,0.9%
Cc1ccc(C(N)=Nc2ccccc2)cc1,i,-2%[11.4 µM],1e-09,i,-0.7%[11.5 µM]
Cc1c(/C(O)=C2\C(=O)C(=O)N(CCN(C)C)C2c2cccs2)cnn1-c1ccccc1 (centres undefined),i,·,1e-09,i,·
COc1cnc(NS(=O)(=O)c2ccc(N)cc2)nc1,i,-9%[25.6 µM],4e-08,i,-2.5%
CC(C)(CS)C(=O)N1CCC[C@H]1C(=O)O,i,0%[25.6 µM],2.6e-08,i,1.6%[25.7 µM]
CCOC(=O)c1nc2nc(C)cc(=O)n2[nH]1,·,-4%[11.4 µM],·,·,0.8%
CCn1c(C2CC(=O)N(c3cc(C)cc(C)c3)C2)nc2ccccc21 (centres undefined),·,?,·,·,-1.3%
CCOc1cc2[nH]c(=O)n(Cc3cccc(OC)c3)c(=O)c2cc1OCC,i,-10%,1e-09,i,0.7%
Cc1cc(C)c(C#N)c(SCS(=O)Cc2ccccc2)n1 (centres undefined),i,?,6.5e-09,i,-0.7%
O=C(NC1CCCCCC1)C1CCN(S(=O)(=O)c2ccc(F)cc2)CC1,·,3%,·,·,4.8%
COc1ccc(OC)c(C2CC(=O)c3c([nH]c(C(=O)OC(C)C)c3C)C2)c1 (centres undefined),·,27%,·,·,1.4%
CCN1CCN(C(=O)CN(c2ccccc2C)S(C)(=O)=O)CC1,i,0%[11.4 µM],3.4e-08,i,0.7%
Cc1ccc(N(C=NC#N)CC(=O)N2CCN(c3ccccc3)CC2)cc1,i,2%,3.1e-08,i,1.3%
O=C(CSc1nc2cccnc2n1Cc1ccccc1)NCc1ccco1,i,?,3e-08,i,0.5%
COc1ccc(-c2coc3ccc(O[C@@H]4O[C@@H](COC(C)=O)[C@@H](OC(C)=O)[C@@H](OC(C)=O)[C@H]4OC(C)=O)cc3c2=O)cc1,i,2%,6.3e-09,i,·
COc1cc(OC)c(-c2nn3c(C4CCCCC4)nnc3s2)cc1OC,i,·,1.2e-08,i,0.4%

# Among those listed so far, these have fluorine.
SMILES,Resorufin fluor,TSHR agonist,A647 autofl,A488 autofl,AID923
COc1cccc(Cn2c(=O)c(-c3cc(F)cc(F)c3)nc3cnc(OC)nc32)c1,i,0%,7.7e-09,i,18%
Cc1noc(C)c1-c1nc(Nc2ccc(F)cc2)c2ccccc2n1,i,4%,1.1e-08,i,2.0%
O=C(NC1CCCCCC1)C1CCN(S(=O)(=O)c2ccc(F)cc2)CC1,·,3%,·,·,4.8%

# Reprinted from above, three compounds:
SMILES,Resorufin fluor,TSHR agonist,A647 autofl,A488 autofl,AID923
O=C(CSc1nc2cccnc2n1Cc1ccccc1)NCc1ccco1,i,?,3e-08,i,0.5%
COc1ccc(-c2coc3ccc(O[C@@H]4O[C@@H](COC(C)=O)[C@@H](OC(C)=O)[C@@H](OC(C)=O)[C@H]4OC(C)=O)cc3c2=O)cc1,i,2%,6.3e-09,i,·
COc1cc(OC)c(-c2nn3c(C4CCCCC4)nnc3s2)cc1OC,i,·,1.2e-08,i,0.4%

# Next entries
SMILES,Resorufin fluor,TSHR agonist,A647 autofl,A488 autofl,AID923
O=C(CCSc1nnc(-c2ccco2)o1)Nc1ccc(Cl)cc1,i,·,5.6e-08,i,-2.0%
CCOC(=O)CN1C(=O)C(C)(C)Oc2ccc(C(=O)Nc3ccccc3)cc21,i,4%,1.9e-08,i,-1.7%
CC1=CCC2C(=O)N(c3ccc(Br)cc3C)C(=O)C2C1 (centres undefined),i,25µM*,4.9e-08,i,-0.7%
O=C(CN1C(=O)C2C3C=CC(C3)C2C1=O)NCCN1CCCc2ccccc21 (centres undefined),i,1%,6.6e-09,i,5.6%
CCCCCCCCC/C=C/CC1CC(=O)OC1=O (centres undefined),·,?,·,·,-1.8%
CS(=O)(=O)Nc1ccc(Cc2ccc(NS(C)(=O)=O)cc2)cc1,i,10%,4.5e-08,i,-1.3%
O=C(COc1ncnc2ccccc12)N1CCN(S(=O)(=O)c2ccc(Cl)cc2)CC1,i,?,9e-09,i,-0.7%
O=C(CCn1c(=O)oc2ccccc21)N1CCOCC1,i,-3%,9e-09,i,0.0%
CCCC(=O)Nc1ccc(NC(=O)c2ccccc2OC)cn1,i,7%,1.9e-08,i,-1.0%
Cc1nc2cncnc2n(Cc2ccccc2)c1=O,i,2%,2.5e-08,i,-1.5%
Cc1nc2c3cnn(-c4ccccc4)c3ncn2n1,i,-1%,4.3e-09,i,0.7%
CC1CCN(S(=O)(=O)c2ccc3c(c2)c(=O)c(C(=O)N2CCCCC2)cn3C)CC1,i,0%[11.4 µM],3.5e-08,i,-0.7%
CC(C)(C)C(=O)Cn1c(NCCCO)nc2ccccc21,i,3%,1.3e-09,i,-0.3%
COC(=O)CCn1nnc(-c2ccc(C)cc2)n1,i,-5%,1e-09,i,0.6%
CC1=Nn2c(nnc2-c2cc(C)[nH]n2)SC1,i,2%,2.8e-08,i,-1.3%

# The final 3 records of the section before lead into the next:
SMILES,Resorufin fluor,TSHR agonist,A647 autofl,A488 autofl,AID923
CC(C)(C)C(=O)Cn1c(NCCCO)nc2ccccc21,i,3%,1.3e-09,i,-0.3%
COC(=O)CCn1nnc(-c2ccc(C)cc2)n1,i,-5%,1e-09,i,0.6%
CC1=Nn2c(nnc2-c2cc(C)[nH]n2)SC1,i,2%,2.8e-08,i,-1.3%
CN(C)S(=O)(=O)c1ccc(C(=O)Nc2nc(-c3cccs3)cs2)cc1,·,?,·,·,7.5%
O=C1c2ccccc2CC1Sc1nnc(-c2ccncc2)o1 (centres undefined),i,2%,1e-09,i,7.2%
COCCOC(=O)C1=C(C)NC(=O)CC1c1cc2c(cc1Br)OCO2 (centres undefined),i,-5%,1e-09,i,0.3%
Cc1cc(C(=O)N2CCN(c3cccc(Cl)c3)CC2)c(C)o1,i,?,1e-09,i,2.8%
Clc1ccc(-c2nc3nc4ccccc4nc3n2Cc2ccco2)cc1,i,?,2.1e-08,i,-0.9%
Cc1nnc(NC(=O)CSc2nnc(Cc3ccccc3)n2Cc2ccccc2)s1,i,7%,5e-09,i,0.6%
CC1(C)S[C@@H]2[C@H](NC(=O)C(C(=O)O)c3ccccc3)C(=O)N2[C@H]1C(=O)O (some centres undefined),i,·,1e-09,i,·
O=C(NCc1ccc2c(c1)OCO2)c1nnc(Cc2ccc(Cl)cc2)o1,·,0%,·,·,-1.6%
COc1ccc2nc(NC(=O)c3ccc(-n4nc(C)cc4C)cc3)sc2c1,i,23%,1.4e-08,i,6.7%
Cn1cc(-c2nc3cnc(N4CCNCC4)nc3n(CCC#N)c2=O)c2ccccc21,i,1%,1e-09,i,20%
CO[C@@H]1/C=C\O[C@]2(C)Oc3c(C)c(O)c4c(O)c(c(CN5CCN(C)CC5)c(O)c4c3C2=O)NC(=O)/C(C)=C\C=C[C@@H](C)[C@@H](O)[C@H](C)[C@@H](O)[C@H](C)[C@H](OC(C)=O)[C@@H]1C,i,-3%[11.4 µM],2.7e-08,i,3.7%[11.5 µM]
O=C(NCCCNC(=O)c1cccs1)c1cccs1,·,4%,·,·,0.3%
Cc1nnc(SCCn2c(N3CCCCC3)nc3c2c(=O)[nH]c(=O)n3C)s1,i,-1%,2.9e-09,i,0.7%
O=C(O)CCSCc1ccc(I)cc1,i,2%[11.4 µM],1e-09,i,2.5%[11.5 µM]
O=C(CN1C(=O)C2C3C=CC(C3)C2C1=O)NC1CCCc2ccccc21 (centres undefined),i,2%,1.6e-09,i,0.1%
CC1(C)CC(=O)C2=C(C1)Nc1ccccc1NC2c1ccccn1 (centres undefined),·,?,·,·,-0.9%
CCOC(=O)C1CCCN(C(=O)c2cc3ncc(Br)cn3n2)C1 (centres undefined),i,-3%,2.6e-08,i,-0.6%
CCCC1(C(=O)OCC)NC(c2ccc(N(C)C)cc2)C2C(=O)N(c3ccc(F)cc3)C(=O)C21 (centres undefined),i,6%,1e-09,i,-1.9%
CC(C)OC(=O)C(NC(=O)c1ccccc1)=C1CCCCC1,·,9%,·,·,3.6%
[O-][N+]1=C2CCC/C(=N\O)C2=NC12CCCCC2,·,-4%,·,·,0.6%
CN(Cc1ccc(-n2cccn2)cc1)C(=O)c1cnn2c1NC(c1ccco1)CC2C(F)(F)F (centres undefined),i,14%,8.8e-09,i,-1.8%
CCOc1ncccc1C(=O)OCc1cc(=O)oc2c(C)c(C)ccc12,i,28%,1e-09,i,0.0%
CC(=O)N1CCc2cc(NS(=O)(=O)c3cccs3)ccc21,i,4%,1.2e-08,i,0.2%
Cc1c2cccn2cc[n+]1C,i,11%,1e-09,i,-0.9%
Cc1cccc(OCC(=O)Nc2ccccc2N2CCN(C(=O)C(C)C)CC2)c1C,i,?,5.2e-09,i,-2.6%
Cn1c(=O)c2c(-c3ccncc3)c3c(nc2n(C)c1=O)-c1ccccc1C3=O,i,-2%,3.8e-08,i,-0.8%
CCN(CC)c1ccc(NC(=O)c2cccc(OC)c2)c(C)c1,i,-1%,3e-08,i,-3.4%
CCOC(=O)C1CCCN(C(=O)c2cc(=O)c3ccccc3o2)C1 (centres undefined),i,0%,4.3e-08,i,-0.7%
Cc1nc(S(=O)(=O)N(C)Cc2ccccc2)c(C#N)c(C)c1Cl,i,-10%[11.4 µM],8.6e-09,i,-1.3%
O=C(NCCN1CCOCC1)c1ccc2c(c1)N(Cc1ccccc1)CCS2,·,9%,·,·,13%
COc1ccc(-c2csc(C3=C(O)CN(Cc4ccc(S(N)(=O)=O)cc4)C3=N)n2)cc1OC,i,-2%[11.4 µM],3.9e-08,i,0.0%
Cc1ccc(C(=O)CC(C(=O)O)c2cn(CCC#N)c3ccccc23)cc1 (centres undefined),·,13%,·,·,1.4%
CCOC(=O)N1CCN(C(=O)c2cn(CCOC)c(=O)c3c2c2ccccc2n3C)CC1,i,-2%,4.6e-09,i,0.1%
O=C(NCC1CCCO1)c1nnc(Cc2ccc(F)cc2)o1 (centres undefined),·,3%,·,·,1.3%

# Not all compounds are listed; count on the stated rates, not on these rows.
